Compound activity deposited in PubChem BioAssay by Broad Institute.
DUX4 inh: DUX4-mediated transcription inhibition | 293T-iDUX4 ZSCAN4-Gaussia luciferase reporter, 24 h; hits give low values | activity change, negative = inhibition, % (test concentration not listed) | hit rate 0.8% among 37,000 | AID 1224904;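 active = -10% or lower and over 25 points stronger than a control reporter; inconclusive = -10% or lower with a smaller gap; inactive = above -10%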;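 note: 0% = median of neutral control wells and -100% = median of positive control wells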
DUX4 inh difference: also measured in DUX4 inh; calls as there; Gaussia minus Italica difference, %; measured here: selective DUX4 reporter inhibition;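 worked out from the two reporters; negative = selective loss of the DUX4 reporter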
DUX4 inh control: second read-out of DUX4 inh, no call of its own (marks repeat the call); activity change, negative = inhibition, %; measured here: Italica tet-on control reporter;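 0 = neutral control and -100 = positive control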
An asterisk follows results filed as active; ? = inconclusive; nt = no result given.

Values run as follows: DUX4 inh	DUX4 inh difference	DUX4 inh control
CC(=O)N1CC[C@@H]2[C@@H](CO)N(C)c3ccc(-c4cccc(F)c4)cc3[C@@H]21
    16	6	10
O=C(C[C@@H]1CC[C@H]2[C@@H](COC[C@@H](O)CN2C(=O)c2ccccc2)O1)NC1Cc2ccccc2C1
    -3	6	-9.2
O=C(Cc1ccncc1)Nc1ccc2c(c1)[C@@H]1C[C@@H](CC(=O)NC3CCCCC3)O[C@H](CO)[C@@H]1O2
    ?	nt	nt
O=C(C[C@H]1CC[C@H]2[C@@H](COC[C@H](O)CN2Cc2ccc(F)cc2)O1)NCc1ccccc1Cl
    -5	-2	-3.4
CO[C@H](CN(C)C(=O)c1ccc2c(c1)OCO2)[C@@H](C)CN([C@H](C)CO)S(=O)(=O)c1ccc(Cl)cc1
    -4	0	-4.7
CCNC(=O)[C@H]1[C@H](CO)[C@H]2Cn3c(cccc3=O)[C@H]2N1Cc1ccccc1Cl
    -3	1	-4.1
COc1ccccc1CN(C)C[C@@H]1OCc2cn(nn2)CCCC(=O)N([C@@H](C)CO)C[C@@H]1C
    -3	-5	1.8
COCCNC(=O)C[C@H]1CC[C@@H]2[C@H](COc3ccc(NC(=O)C4CCOCC4)cc3C(=O)N2C)O1
    2	2	0.1
O=C(c1ccccn1)N1C[C@H]2[C@@H](c3ccccc31)[C@@H](CO)N2C(=O)Nc1ccccc1Cl
    -3	2	-5.3
COc1ccc(NC(=O)N(C)C[C@H]2Oc3ccc(NC(=O)Nc4cccc5ccccc45)cc3CC(=O)N([C@H](C)CO)C[C@@H]2C)cc1
    0	1	-0.8
CCCN1[C@@H]2c3ccc(/C=C/c4ccccc4)c(=O)n3C[C@@H]2[C@@H](CO)[C@@H]1C(=O)N(C)C
    -7	-5	-1.2
C/C=C/c1ccc([C@H]2[C@@H](CO)N(C(=O)C3CCC3)[C@H]2CNC(=O)NC(C)C)cc1
    -1	-5	4.1
O=C([C@@H]1[C@@H](CO)[C@@H]2Cn3c(cccc3=O)[C@H]1N2CC1CCCC1)N1CCc2ccccc2C1
    -6	-11	5.1
CO[C@H]1CN(C)C(=O)c2cc(NS(C)(=O)=O)ccc2OC[C@H](C)N(CC2CCOCC2)C[C@@H]1C
    4	2	2.1
CCNC(=O)C[C@H]1CC[C@@H]2[C@H](COC[C@@H](O)CN2C(=O)Nc2ccc(Cl)c(Cl)c2)O1
    12	16	-3.6
CS(=O)(=O)Nc1ccc2c(c1)[C@H]1C[C@H](CC(=O)NCc3ccc(Cl)cc3)O[C@H](CO)[C@H]1O2
    3	3	-0.4
C[C@H](CO)N1C[C@H](C)[C@H](CN(C)S(C)(=O)=O)Oc2c(NS(=O)(=O)c3ccccc3)cccc2C1=O
    2	-1	3.3
CO[C@@H]1CN(C)C(=O)c2cc(NC(=O)Cc3ccccc3)ccc2OC[C@@H](C)N(C)C[C@H]1C
    -3	-2	-1.3
O=C(Nc1ccccc1F)N[C@H]1CC[C@@H](CC(=O)N2CCCCC2)O[C@@H]1CO
    -3	-3	-0.1
COCC(=O)N1CC2(C1)[C@H](c1ccc(C3=CCCC3)cc1)[C@@H](CO)N2C(=O)COC
    0	1	-1.6
COc1cccc(-c2ccc([C@H]3[C@@H](CO)N(C(=O)c4ccccn4)[C@H]3C#N)cc2)c1
    1	-2	3.7
C[C@@H]1CN([C@@H](C)CO)C(=O)c2c(c3ccccc3n2C)-c2ccccc2CO[C@@H]1CN(C)S(=O)(=O)CC(F)(F)F
    18	17	1.2
O=C(C[C@H]1CC[C@H]2[C@@H](COC[C@@H](O)CN2C(=O)C2CCCC2)O1)NCc1ccncc1
    0	-3	3.7
O=C(NC1CCC1)[C@H]1[C@H](CO)[C@H]2Cn3c(ccc(-c4ccncc4)c3=O)[C@H]2N1CC1CC1
    -4	6	-10
CCC(=O)N1[C@H](CO)[C@@H]2c3ccccc3N(C(=O)c3cnccn3)C[C@@H]21
    4	3	0.7
CCCNC(=O)[C@H]1[C@H](CO)[C@H]2Cn3c(ccc(-c4ccc(OC)cc4)c3=O)[C@@H]1N2CC
    10	6	4.5
O=C(C[C@@H]1CC[C@H]2[C@@H](COC[C@H](O)CN2C(=O)Nc2ccc(Cl)c(Cl)c2)O1)NC1CCC1
    6	5	1.1
Cc1nn(C)cc1NC(=O)C[C@H]1CC[C@@H]2[C@H](COc3ccc(NC(=O)NC(C)C)cc3C(=O)N2C)O1
    -1	0	-1.2
C[C@@H]1CN([C@H](C)CO)C(=O)c2cc(/C=C/c3ccccc3)cnc2O[C@@H]1CN(C)Cc1cccc(C(=O)O)c1
    3	5	-1.6
COc1ccc2c3c([nH]c2c1)[C@H](CO)N(C)CC31CCN(C(=O)Nc2c(C)noc2C)CC1
    18	9	8.9
C[C@@H]1CN([C@H](C)CO)C(=O)CCCn2nncc2CO[C@@H]1CN(C)S(=O)(=O)c1ccccc1F
    -3	-6	2.3
COc1ccc2c3c([nH]c2c1)[C@@H](CO)N(S(=O)(=O)c1ccccc1)CC31CCN(C)CC1
    11	-4	15
CN(C)C(=O)[C@@H]1[C@@H](CO)[C@@H]2Cn3c(ccc(-c4ccncc4)c3=O)[C@H]1N2CC1CC1
    0	0	0.5
CCC(=O)Nc1ccc2c(c1)OC[C@@H](C)N(C(=O)C1CC1)C[C@@H](C)[C@@H](OC)CN(C)C2=O
    1	1	0.1
O=C(CN1CCOCC1)N1CC(=O)N2[C@@H](CO)[C@H](c3ccc(-c4cccc(F)c4)cc3)[C@@H]2C1
    6	4	1.8
COc1ccc(S(=O)(=O)N(C)C[C@@H]2OCc3ccccc3-c3c(n(C)c4ccccc34)C(=O)N([C@H](C)CO)C[C@H]2C)cc1
    ?	nt	nt
COC(=O)C[C@@H]1CC[C@@H]2[C@@H](COc3ccc(NC(=O)C4CCOCC4)cc3C(=O)N2C)O1
    2	-6	7.2
CC=Cc1ccc2n(c1=O)C[C@@H]1[C@@H](CO)[C@H](C(=O)N[C@@H](C)c3ccccc3)N(C)[C@H]21 (mixture of isomers)
    -5	-4	-0.8
CO[C@@H]1CN(C)C(=O)c2ccc(NC(C)=O)cc2OC[C@H](C)N(C(=O)Cc2cccnc2)C[C@H]1C
    6	4	1.6
O=C(C[C@@H]1C[C@@H]2c3cc(NC(=O)Nc4ccccc4F)ccc3O[C@@H]2[C@@H](CO)O1)NCc1cc(F)ccc1F
    ?	nt	nt
CO[C@@H]1CN(C)C(=O)c2cc(NS(C)(=O)=O)ccc2OC[C@H](C)N(CC2CCOCC2)C[C@@H]1C
    -1	-2	1.3
O=C(NCC1CCCCC1)[C@H]1N[C@H]2c3ccc(C4=CCCC4)c(=O)n3C[C@H]2[C@@H]1CO
    -8	-9	1.2
CCCC(=O)Nc1ccc2c(c1)C(=O)N(C)[C@@H]1CC[C@H](CC(=O)NCCN3CCCCC3)O[C@H]1CO2
    -3	0	-2.8
CNC(=O)C[C@H]1CC[C@@H]2[C@@H](COc3ccc(NC(=O)c4cccc(OC)c4)cc3C(=O)N2C)O1
    8	26	-18
CO[C@@H](C(=O)N(C)C[C@H]1OCc2ccccc2-c2c(n(C)c3ccccc23)C(=O)N([C@H](C)CO)C[C@@H]1C)c1ccccc1
    -2	4	-6.2
CCC(=O)N1[C@@H]2c3ccc(C4=CCCC4)c(=O)n3C[C@@H]2[C@@H](CO)[C@@H]1C(=O)NCc1ccccc1
    7	8	-1.1
COc1ccccc1CN1C[C@@H]2N[C@H](C1)C2c1ccc(-c2ccccc2OC)cc1 (stereo partly specified)
    ?	nt	nt
C[C@@H]1CN([C@@H](C)CO)C(=O)c2cccc(NS(=O)(=O)c3ccc(Cl)cc3)c2O[C@@H]1CN(C)Cc1ccc(C(=O)Nc2ccccc2N)cc1
    -1	2	-3.0
N#C[C@H]1[C@H](c2ccc(-c3ccc(F)cc3)cc2)[C@@H](CO)N1c1nc(-c2ccccc2)cs1
    2	-3	4.6
Cc1ccccc1S(=O)(=O)N1CC(=O)N2[C@H](C1)[C@@H](c1ccc(C#CCC3CCCC3)cc1)[C@@H]2CO
    ?	nt	nt
Cc1ccccc1S(=O)(=O)NCC[C@@H]1CC[C@@H](NC(=O)Nc2cccc(F)c2)[C@H](CO)O1
    3	0	2.8
COc1ccccc1C(=O)Nc1ccc2c(c1)OC[C@@H](C)N(CC1CC1)C[C@H](C)[C@@H](OC)CN(C)C2=O
    ?	nt	nt
Cc1ccccc1S(=O)(=O)N[C@@H]1CC[C@H](CCn2cc(-c3ccc(F)cc3)nn2)O[C@H]1CO
    -5	3	-8.0
O=C(C[C@@H]1CC[C@@H](NC(=O)C2CCC2)[C@H](CO)O1)NCc1ccncc1
    11	9	2.3
C/C=C/c1ccc([C@@H]2[C@H](CO)N(C(=O)CC3CC3)C23CN(S(C)(=O)=O)C3)cc1
    -1	3	-4.7
CC(C)NC(=O)N1[C@H](C(=O)N2CCOCC2)[C@@H](CO)[C@@H]2Cn3c(ccc(-c4ccc(F)cc4)c3=O)[C@@H]21
    -7	-5	-2.5
C[C@@H]1CN([C@H](C)CO)C(=O)c2cc(NC(=O)c3ccccc3)ccc2O[C@@H](C)CCCCO[C@@H]1CN(C)S(=O)(=O)c1cccs1
    5	1	3.9
CNC[C@H]1OCCCC[C@@H](C)Oc2ccc(NS(=O)(=O)c3cn(C)cn3)cc2C(=O)N([C@@H](C)CO)C[C@@H]1C
    -3	-11	8.1
COc1ccc2c3c(n(C)c2c1)[C@H](CO)N(C(=O)CN(C)C)CC31CCN(C(=O)NC(C)C)CC1
    15	10	5.3
COCC#Cc1cnc2c(c1)C(=O)N([C@H](C)CO)C[C@@H](C)[C@@H](CN(C)C(=O)c1ccc3c(c1)OCO3)O2
    -2	0	-1.2
O=C(C[C@@H]1CC[C@@H]2[C@H](COC[C@@H](O)CN2Cc2ccccc2)O1)N1CCOCC1
    9	6	3.1
C[C@@H]1CN([C@@H](C)CO)C(=O)CCCn2nncc2CO[C@H]1CN(C)Cc1ccc2c(c1)OCCN2C
    5	1	3.4

Only part of the results is shown, so the mix of outcomes need not match the whole.
